HPGD inh – HPGD (human) dehydrogenase inhibition | purified HPGD, NADH fluorescence kinetic, PGE2 substrate | Potency, µM, without a hit: at the top dose activity change, negative = inhibition, usual class: inhibitors | hit rate 4.3% among 150,000 | AID 894; active = well fitted inhibition curve with a large enough effect (not every such curve was filed as active); inconclusive = small, poorly fitted or top-dose-only effect, or another doubt; inactive = no such curve, though single readings can be large or run the other way;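 also: top concentration of the series not given in the record; plate controls included wells without enzyme; inactives centre near -10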
Target sequence (P15428 whole entry, looked up): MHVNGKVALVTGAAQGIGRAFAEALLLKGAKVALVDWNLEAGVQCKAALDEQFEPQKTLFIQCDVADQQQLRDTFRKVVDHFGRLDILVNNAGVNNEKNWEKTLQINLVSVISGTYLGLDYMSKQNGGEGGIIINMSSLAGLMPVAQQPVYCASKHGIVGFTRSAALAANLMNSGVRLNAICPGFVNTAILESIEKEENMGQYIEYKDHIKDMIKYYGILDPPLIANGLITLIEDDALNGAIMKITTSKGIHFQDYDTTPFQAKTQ
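NADH formation kinetics: reaction with 30 uM PGE2 and 1 mM NAD+ (final), 20 nM enzyme, Tris-HCl pH 8 with Tween 20, after 15 min compound preincubation at room temperature. Fluorescence change, last versus first of five reads.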
Active calls of the source: *; u = inconclusive; & = joins results of further samples. % is scaled to controls: 0 for no effect and ±100 for the full control effect; potency is read from the fitted curve at half-maximal effect. A portion of the library; rates above refer to the full screens.

SMILES	HPGD inh
CCCCn1c(SCC(=O)NCc2ccccc2)nc2ccc(N3CCOCC3)cc2c1=O	u
N#Cc1ccc(NC(=S)Nc2ccccc2)cc1	-5%
CCCCCc1ccc(S(=O)(=O)NCCc2ccncc2)cc1	-2%
COc1ccc(-c2cn(-c3ccc(SC(F)F)cc3)c3[n+]2CCC3)cc1OC	-2%
COc1ccccc1-c1cc(C(F)(F)F)n2ncc(S(=O)(=O)c3ccccc3)c2n1	u
Cc1ccccc1CS(=O)(=O)CCC(=O)NCc1ccccn1	-4%
Clc1ccccc1-c1nn2c(-c3ccncc3)nnc2s1	11µM*
Cc1ccc(Cn2c(=N)c(C(=O)NCc3ccco3)cc3c(=O)n4ccccc4nc32)cc1	u
Cc1ccc(S(=O)(=O)Nc2ccccc2/C=N/c2nc3ccccc3n2C(C)C)cc1	-19%
CC(C)[C@@H](CC(=O)N[C@@H]1CCCC[C@H]1C(=O)N[C@H](CC(=O)N[C@@H](CCC(=O)O)CC(=O)O)Cc1ccccc1)NC(=O)C[C@H](CO)NC(=O)[C@@H]1CCCC[C@H]1N	-6%
COCCCNC(=O)CC(NS(=O)(=O)c1ccc(F)cc1)c1ccc(OC)cc1 (configuration not stated)	0%
C[C@@H](C(=O)OCC(=O)Nc1cc(S(=O)(=O)N2CCOCC2)ccc1Cl)N1C(=O)C2CCCCC2C1=O (some centres not stated)	-3%
OCc1ccc(O)c2ncccc12	-6%
O=C(NNC(=S)NC(=O)c1sc2ccccc2c1Cl)c1ccc(Cl)cc1	-24%
Cc1ccc(CNC(=O)CCc2ccc(S(=O)(=O)NC3CCCCC3)cc2)cc1	-29%

HPGD inh: entries above that show a hit.
SMILES	HPGD inh
Clc1ccccc1-c1nn2c(-c3ccncc3)nnc2s1	11µM*

Later entries:
SMILES	HPGD inh
COc1ccc(C(=O)Nc2ccccc2N2CCOCC2)cc1[N+](=O)[O-]	-10%
CSCCC(NC(=O)c1ccoc1C)C(=O)O (configuration not stated)	-11%
O=C(Nc1ccccc1)c1ccc(F)c(S(=O)(=O)N2CCOCC2)c1	-12%
Cc1cc(C)c(S(=O)(=O)/N=C2/C=C(Sc3ncn[nH]3)C(=O)c3ccccc32)cc1C	0.89µM*
COc1cc(-c2nnc(-c3ccco3)o2)ccc1OCc1ccccc1	u
Cn1cc(C(=O)NCc2cccs2)c(=O)c2cc(S(=O)(=O)N3CCCC3)ccc21	-8%
CCC(=O)N1CCN(CCN=CC2=C(O)CC(c3ccc(OC)cc3)CC2=O)CC1 (configuration not stated)	-6%
CC(C)(C)c1ccc(S(=O)(=O)CCc2ccccn2)cc1	-14%
Cc1cc(OC(=O)Cc2cccc3ccccc23)c([N+](=O)[O-])c(=O)[nH]1	-12%
COc1ccccc1/C=C(\NC(=O)c1ccc(OC)c(OC)c1)C(=O)Nc1cc([N+](=O)[O-])ccc1C	-8%
CC/C=C\C/C=C\C/C=C\C/C=C\C/C=C\C/C=C\CCC(=O)O	-7%
Cc1cc(C)c(NC(=O)CSc2nnc(-c3ccncc3)n2Cc2ccco2)c(Cl)c1	-11%
O=c1ccnc(NCCc2ccccc2)[nH]1	-15%
CSCCC(/C(O)=C(\C#N)c1nc2ccccc2[nH]1)N1C(=O)c2ccccc2C1=O (configuration not stated)	-9%
COCCCNC(=O)CC(NS(=O)(=O)c1ccc(Cl)cc1)c1ccc(OC)cc1 (configuration not stated)	-4%
COCCN(Cc1cc2cccc(C)c2[nH]c1=O)C(=O)c1ccccc1	-20%
Cc1ccc(C(=O)CSc2nsc(C)c2C#N)cc1	22µM*
COC(=O)CCc1c(C)[nH]c(=S)[nH]c1=O	-10%
Cc1ncc(S(=O)(=O)c2ccc(Cl)cc2)c(-c2ccccc2)n1	-9%
C=CCn1c(CNc2ccccc2)nnc1SCC(=O)N/N=C/c1ccccc1O	-19%
Cn1c(N)c(C(=O)COC(=O)CSc2ccc(Cl)cc2)c(=O)n(C)c1=O	-29%
Cc1cccn2c(=O)c(/C=N/O)c(N3CCCCC3)nc12	2µM*
CCOC(=O)c1ccc(NC(=O)CNC(=O)C23CC4CC(CC(C4)C2)C3)cc1	-23%
CN(Cc1ccccc1)C(=O)Cn1c(=O)oc2cc(S(=O)(=O)N3CCCC3)ccc21	1%
Cc1ccc2[nH]c(=O)c(CN(Cc3cccs3)C(=S)NCC3CCCO3)cc2c1 (configuration not stated)	-20%
COc1ccc2[nH]c(C)c(CCNC(=S)Nc3ccccc3C)c2c1	-5%
N#Cc1nc(-c2cccs2)oc1N1CCN(c2ccccc2)CC1	u
COc1ccc(NC(=O)CCN2CCC(C)CC2)cc1	-3%
Cc1cc(C)nc(N2N=C(C(C)(C)C)CC2=O)n1	-4%
CC(=O)c1cccc(N/C=C\c2nnnn2-c2ccc(F)cc2)c1	u
CCCn1nc2cc(C(=O)NCc3ccc(OC(F)(F)F)cc3)ccc2c1OCC	u
COc1ccc(C)cc1NC(=O)COC(=O)c1ccc(OCc2ccc(Cl)cc2Cl)c(OC)c1	-8%
CC(=O)NNC(=O)CCC(=O)Nc1ccccc1	-3%
COc1cc(OC)cc(C(=O)NCCN2CCOCC2)c1	-9%
O=S(=O)(NC1=NCCCCCC1)c1cccs1	-10%
O=C(COc1ccc(Cl)cc1)Nc1ccc2oc(-c3ccncc3)nc2c1	u
COC(=O)Cc1ccc(NC(=O)c2ccc(Br)o2)cc1	-10%
NC(=S)N/N=C/C=C/c1ccccc1	-19%
O=c1c2cc(Br)cc(Br)c2oc2nc3n(c(=O)c12)CCCS3	u
O=C(NC1CCCc2ccccc21)c1ccccc1Br (configuration not stated)	-6%
COc1ccc2c(c1)C(=O)[C@@H](OC(=O)NCc1ccc3c(c1)OCO3)[C@H](c1ccc(OC)c(Br)c1)O2	-4%&-17%
CC1(C)CC(=O)c2sc(NC(=O)CCS(=O)(=O)c3ccccc3)nc2C1	u
COC(=O)c1cn(NC(=O)c2cc(OC)cc(OC)c2)c(=O)c2ccccc12	-6%
Cc1cc(C)nc(NC(=O)COc2ccc(Cl)cc2)c1	-8%
COc1cc2c(cc1OC)C(C)N(C(=O)Cn1ncc3c1-c1ccccc1OC3)CC2 (configuration not stated)	0%
COc1ccc(F)cc1S(=O)(=O)Nc1ccccc1C(=O)O	-10%
CS(=O)(=O)N1CCN(c2ccc(C(=O)NC3C4CC5CC(C4)CC3C5)cc2[N+](=O)[O-])CC1 (configuration not stated)	-11%
O=C(CN1C(=O)CSC1=O)Nc1ccc2c(c1)OCCO2	-7%
CNC(=O)[C@H]1O[C@@H](n2cnc3c(N)ncnc32)[C@H](O)[C@H]1O	-25%
Cc1onc(-c2c(F)cccc2Cl)c1C(=O)NC(=S)NCc1cccnc1	-1%
C/C(CCN1CCCCc2nc(C)c(C)cc21)=N\O[C@@H](C)CN1CCCCc2nc(C)c(C)cc21	-6%
c1ccc(CN2C3=NCCN3c3ccccc32)cc1	-6%
COc1ccc(NC(=O)N2CC(C)OC(C)C2)cc1OC (configuration not stated)	-11%
COc1ccc(-c2csc(NC(=O)COC(=O)c3ccco3)n2)cc1	-6%
COCC1C2CC[C@H]3C(OCc4ccc(OC)cc4)OC[C@]4(C)[C@H]3C2=C(CN4C(=O)OC(C)(C)C)[C@H](C)C1COC (some centres not stated)	u
CCCNCC(O)Cn1c2ccccc2n2c(=O)cc(C)c(C#N)c12 (configuration not stated)	u
COc1ccc(-c2ccc(SCC(=O)Nc3cc(C)on3)nn2)cc1OC	-11%
CCOc1ccc2nc(NC(=O)CS(=O)(=O)c3ccc(C)cc3)sc2c1	-17%
C/C(CC(=O)Nc1cc(C)cc(C)c1)=N\NC(=O)c1ccccn1	-2%
Cc1ccc(S(=O)(=O)N(C)CCCC(=O)Nc2cccc3ccccc23)cc1	-10%

(next part)
SMILES	HPGD inh
CC(=O)Nc1sc(NC(=O)c2ccc(C)cc2)nc1-c1cccs1	-22%
COc1cc(N)c(Cl)cc1NC(=O)c1ccccc1	1%
Cc1csc(NC(=O)CSc2nc3ccccc3c(=O)[nH]2)n1	u
O=C1c2ccccc2C(Nc2ccc(-c3nc4ccccc4[nH]3)cc2)N1Cc1ccco1 (configuration not stated)	-21%
COc1ccc(OC(C)C(=O)N2CCOCC2)cc1 (configuration not stated)	0%
CCC(=O)NNc1cc(=O)c2c(=O)n(C)c(=O)n(C)c2[nH]1	-2%
CCCC(=O)Nc1ccccc1-c1nnn(CC(=O)Nc2ccc(OCC)cc2)n1	-9%
COc1cc2c(cc1OC)C(Cc1ccc(O)cc1)N(C)CC2 (configuration not stated)	-8%
Cc1ccc2cc(CN(C(=O)c3ccncc3)C(C)C)c(=O)[nH]c2c1	-21%
O=C(N/N=C/c1sc(N2CCOCC2)nc1-c1ccccc1)c1ccccc1O	-22%
COc1ccc(Cc2nnc(NC(=O)Cn3cnc4c3c(=O)n(C)c(=O)n4C)s2)cc1	-10%
O=c1c2c(nc3cc(-c4ccc(F)cc4)[nH]n13)CCCC2	u
CSc1nc2nc(-c3ccccc3)cc(=O)n2[nH]1	-13%
CC(=O)N1CCCc2cc(S(=O)(=O)CCC(=O)N3CCN(c4cccc(C)c4)C(C)C3)ccc21 (configuration not stated)	-10%
O=C(NCCc1ccccc1)c1ccc2nc(-c3ccco3)c(-c3ccco3)nc2c1	u
Nc1nc2ccccc2n1/N=C/c1ccc(Br)cc1	-19%
Cc1ccc(SCC(=O)NCC(C)C)cc1	16µM*
COC(=O)Nc1ccccc1C(=O)N1CCN(c2ccc(C)cc2)CC1	-14%
COc1ccc(C(=O)Nc2cc(-c3nn4c(C)nnc4s3)ccc2C)cc1	u
CC(=O)Nc1cccc(NC(=O)C2CCCN2C(=O)Nc2ccccc2C)c1 (configuration not stated)	-7%
Cc1cc2cc(C(c3nnnn3CC3CCCO3)N3CCCc4ccccc43)c(=O)[nH]c2cc1C (configuration not stated)	u
Clc1ccc(Cn2ncc3c(NCCN4CCOCC4)ncnc32)cc1	-14%
CC(CO)(CO)N=Cc1cc(I)cc(I)c1O	-9%
O=C(NC1CCCCC1)NC1CCCCC1	-26%
Cn1c(-c2ccc(C=O)s2)nc2ccccc21	u
O=C(CN1CCOc2ccccc21)N1CCCC1	-14%
O=C(Nc1ccc2c(c1)OCO2)c1cnn2c(C(F)(F)F)cc(-c3ccco3)nc12	-11%
CCN(CC)C(=O)CSc1nc2cc3c(cc2c(=O)n1Cc1ccc2c(c1)OCO2)OCO3	u
Cc1c(C2OC(=O)C3(CCCCC3)C(=O)C2(C)C)c(=O)n(-c2ccccc2)n1C (configuration not stated)	5%
CCOc1ccc(S(=O)(=O)NCc2cccs2)cc1	-10%
O=C(NCc1ccco1)c1cccn2c(=O)c3cc4ccccc4cc3nc12	-16%
C=CCOC(=O)Nc1ccc(Cl)cc1NC(=O)OCC=C	-3%
COc1ccc(N2C(=O)CC(N(CCc3ccc(OC)c(OC)c3)C(=S)Nc3ccccc3)C2=O)cc1 (configuration not stated)	-9%
C[C@]1(O)CC[C@H]2[C@H]3CC=C4N5CCN=C5CC[C@@]4(C)[C@H]3CC[C@@]21C	-4%
O=C(Cc1ccc(-c2ccccc2)cc1)N1CCOCC1	-17%
COc1cc(Cl)c(S(=O)(=O)NCc2cccnc2)cc1Cl	-6%
CCOC(=O)CC1C(=O)NCCN1S(=O)(=O)c1cc(Cl)c(Cl)cc1Cl (configuration not stated)	2%
CC1CCCN(c2ccc(C(=O)NCCc3ccccc3)cn2)C1 (configuration not stated)	18µM*
Nn1c(-c2cccs2)nc2sc3c(c2c1=O)CCCC3	u
CN1c2ccccc2C(C)(C)[C@]12C=Cc1cc(O)ccc1O2	-14%
O=C(c1cn(-c2ccccc2)nc1-c1ccc(F)cc1)N1CCOCC1	-10%
CCOC(=O)C(NC(=O)Nc1ccc(C(N)=O)cc1)(c1ccccc1)C(F)(F)F (configuration not stated)	-29%
O=C(Nc1nc2c(s1)CCCC2)c1cc(-c2ccccc2)nc2ccccc12	-15%
O=C(OCCN(CCOC(=O)c1ccncc1)S(=O)(=O)c1cccs1)c1ccncc1	-8%
Cc1nn(-c2ccc(Cl)cc2Cl)c(=O)c2ccccc12	-4%
N=c1ccn2c(n1)O[C@H]1[C@@H](OP(=O)(O)O)[C@H](CO)O[C@H]12	1%
C1COCCNCCOCCOCCOCCN1	-12%
Cc1ccc2nc(-c3ccccc3)nc(SC(C)C(=O)NCc3cccs3)c2c1 (configuration not stated)	-11%
Cn1c2c(c(=O)n(C)c1=O)CN(CCN1CCNCC1)CN2	-15%
O=C(Nc1ccc2snnc2c1)Nc1cccc2ccccc12	-17%
C=CCNc1nc(NCC)nc(N2CCOCC2)n1	2%

Part of the list above in order of molar mass, largest number first.
SMILES	HPGD inh
COc1ccc(N2C(=O)CC(N(CCc3ccc(OC)c(OC)c3)C(=S)Nc3ccccc3)C2=O)cc1 (configuration not stated)	-9%
O=C(OCCN(CCOC(=O)c1ccncc1)S(=O)(=O)c1cccs1)c1ccncc1	-8%
CCOC(=O)CC1C(=O)NCCN1S(=O)(=O)c1cc(Cl)c(Cl)cc1Cl (configuration not stated)	2%
CCOC(=O)C(NC(=O)Nc1ccc(C(N)=O)cc1)(c1ccccc1)C(F)(F)F (configuration not stated)	-29%
O=C(Nc1nc2c(s1)CCCC2)c1cc(-c2ccccc2)nc2ccccc12	-15%
O=C(c1cn(-c2ccccc2)nc1-c1ccc(F)cc1)N1CCOCC1	-10%
COc1cc(Cl)c(S(=O)(=O)NCc2cccnc2)cc1Cl	-6%
C[C@]1(O)CC[C@H]2[C@H]3CC=C4N5CCN=C5CC[C@@]4(C)[C@H]3CC[C@@]21C	-4%
CC1CCCN(c2ccc(C(=O)NCCc3ccccc3)cn2)C1 (configuration not stated)	18µM*
O=C(Nc1ccc2snnc2c1)Nc1cccc2ccccc12	-17%
N=c1ccn2c(n1)O[C@H]1[C@@H](OP(=O)(O)O)[C@H](CO)O[C@H]12	1%
Nn1c(-c2cccs2)nc2sc3c(c2c1=O)CCCC3	u
CN1c2ccccc2C(C)(C)[C@]12C=Cc1cc(O)ccc1O2	-14%
O=C(Cc1ccc(-c2ccccc2)cc1)N1CCOCC1	-17%
C=CCNc1nc(NCC)nc(N2CCOCC2)n1	2%
C1COCCNCCOCCOCCOCCN1	-12%
